From PubChem
Methyltransferases = Primary Screen for Target Class Profiling of Small Molecule Inhibitors of Methyltransferases | purified enzyme, MTase-Glo SAH luminescence; active compounds read low | calls only at 40 µM | actives 3.9% (n = 25,000); active = -50% or lower on at least one of six enzymes; inconclusive = the cases between; inactive = as a rule above -30% on all six;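 note: enzymes were COMT GAMT GNMT HNMT NNMT and PNMT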
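Each enzyme was assayed with SAM and its substrate. SAH formation detected by MTase-Glo luminescence; single-point 40 uM screen[…].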
Calls only; i = inactive; ? = inconclusive; + = active, no number; ! = a repeat was not active. % is set by controls: 0 for no effect and ±100 for the full control effect. The list is partial; rates above refer to the full screens.

SMILES,Methyltransferases
Cc1cccc(CNC(=O)C2(C)Cn3cnc(C(=O)N(C)Cc4ccccc4)c3C(=O)N2C2CC2)c1 (centres undefined),i
CCc1noc(-c2nc(Cc3cccc(F)c3)no2)n1,i
Cc1ccc(NC(=O)CSc2nnc3n(Cc4ccccc4)c(=O)c4ccccc4n23)c(C)c1,i
Fc1ccc(-c2cc(C3CCNCC3)[nH]n2)cc1,i
C[N+](C)(C)CCOC(=O)CCC(=O)OCC[N+](C)(C)C,i
CCC(C)NC(=O)c1ccc2c(=O)nc3c(-c4cccc(C)c4)n[nH]n3c2c1 (centres undefined),i
Cc1cccc(CNC(=O)c2ncn3c2C(=O)N(C2CC2)C(C)(C(=O)NC2CCCC2)C3)c1 (centres undefined),i
C=C1C[C@]23C[C@H]1CC[C@H]2[C@@]12C=C[C@H](O)[C@@](C)(C(=O)O1)[C@H]2[C@@H]3C(=O)O,i
CCCC[C@@]1(C2CCCC2)Cc2cc(OCC(=O)O)c(Cl)c(Cl)c2C1=O,+
CC(C)c1nccn1CCCNC(=O)c1ccc(N2CCCC(CO)C2)nc1 (centres undefined),+
O=C(CCc1nnc2n(CCc3ccccc3)c(=O)c3ccccc3n12)NCCc1ccc(Cl)cc1,i
Cc1ccc(C2NC(C(=O)O)Cc3c2[nH]c2ccccc32)cc1 (centres undefined),i
Cc1c(F)cc(C(=O)NC2CC2)cc1-c1c(F)cn2c(C(C)(C)C)nnc2c1F,i
CN1C(=O)CN(Cc2ccccc2C#N)C(=O)c2ccccc21,i
CCOc1nc2cccc(C(=O)OCc3oc(=O)oc3C)c2n1Cc1ccc(-c2ccccc2-c2noc(O)n2)cc1,i
O=C(C1CCCN([S+](=O)([O-])c2cccc(C(F)(F)F)c2)C1)N1CCC(c2nc3ncccc3[nH]2)C1 (centres undefined),i
O=S(=O)(c1ccccc1)N1CCC(F)(c2nc(Cc3ccccc3)no2)CC1,i
CC1CCN(S(=O)(=O)c2ccc3c(ccn3CCC(=O)NCc3ccccc3F)c2)CC1,i
CC(CN1C(=O)c2nc3ccccc3n2CC1(C)C(=O)NC1CCCC(C)C1C)c1ccccc1 (centres undefined),i
C[C@@H]1[C@H]2[C@H](O[C@@H]3O[C@H](CO)[C@@H](O)[C@H](O)[C@H]3O)OC=C(C(=O)O)[C@H]2C[C@@H]1OC(=O)/C=C/c1ccc(O)cc1,i
COc1ccc(-c2c(C(F)(F)F)oc3cc(OC(C)C(=O)OC4CCCCC4)ccc3c2=O)cc1OC (centres undefined),i
N[C@H](C(=O)O)[C@H](Cc1ccccc1)C(=O)O,i
CCOCCOC1CCN(C(=O)c2nn(C)c3ccccc23)CC1,i
CC(C(=O)NCc1cccc(Cl)c1)n1ccc2cc(S(=O)(=O)N3CCCC3)ccc21 (centres undefined),i
C[C@@H]1O[C@@H](O[C@@H]2\C=C/C=C\C=C/C=C\C[C@H](C)OC(=O)/C=C\[C@H]3O[C@@H]3C[C@H](O)C[C@]3(O)C[C@@H](O)[C@@H](C(=O)O)[C@H](C2)O3)[C@H](O)[C@H](N)[C@@H]1O,i
COc1ccccc1CNC(=O)Cn1ccc2cc(S(=O)(=O)N3CCC(C)CC3)ccc21,i
O=C(Nc1ccccc1)N1CCC(Oc2ccccc2-c2nc(-c3ccccc3)no2)C1 (centres undefined),i
Cn1nc(C2CCN(C(=O)c3ccccn3)CC2)c2c1CCOC2,i
CCOC(=O)c1cc2n(n1)CC(C)(C(=O)NC1CCCC1)N(Cc1ccc(Cl)cc1)C2=O (centres undefined),i
Nc1nc(O)c(C2=C3C(=Nc4ccccc43)C(=O)NCC2)[nH]1,i
Cc1ccc(N2C(=O)c3cc4oc(C)cc4n3CC2(C)C(=O)NC2CCCCCC2)c(C)c1 (centres undefined),i
C[C@@H]1O[C@@H](O[C@H]2[C@H](OC(=O)[C@]34CCC(C)(C)C[C@H]3C3=CCC5[C@@]6(C)C[C@H](O)[C@H](O[C@@H]7O[C@H](CO)[C@@H](O)[C@H](O)[C@H]7O)[C@@](C)(CO)C6[C@H](O)C[C@@]5(C)[C@]3(C)C[C@H]4O)OC[C@H](O)[C@@H]2O)[C@H](O)[C@H](O)[C@H]1O[C@@H]1OC[C@@H](O)[C@H](O[C@H]2OC[C@](O)(CO)[C@H]2O)[C@H]1O (some centres undefined),i
CCCN1C(=O)c2c(C(=O)NCCCc3ccccc3)ncn2CC1(C)C(=O)NC1CCCC1 (centres undefined),i
CN1C(=O)CC[C@]2(C(=O)NCc3cc(F)cc(F)c3)CCCC[C@@H]12,i
CN1CCNC(=O)C1CC(=O)O (centres undefined),i
CC#C[C@@H](CC(=O)O)c1ccc(OCc2ccc(CN3CCC4(C=Cc5ccccc54)CC3)s2)cc1,?
CCCSCCCN1C(=O)c2cc3sccc3n2CC1(C)C(=O)NC1CCCCCC1 (centres undefined),i
COc1ccccc1CNC(=O)C1(C)Cn2c(cc3ccccc32)C(=O)N1Cc1cccnc1 (centres undefined),i
CCc1ccccc1NS(=O)(=O)c1cc2c(cc1C)n(C)c(=O)n2C,i
COc1ccccc1C(C(=O)O)N1CCC(OCc2cccnc2)CC1 (centres undefined),i
CCS(=O)(=O)N1CCC2(CCC2OC)CC1 (centres undefined),i
COc1ccc(S(=O)(=O)N2CCc3c(C(=O)NCc4ccncc4)cccc32)cc1,i
O=C(CCCc1nnc2n3nc(-c4ccccc4)nc3c3ccccc3n12)N1CCN(c2ccccn2)CC1,i
Cn1c(=O)n(C)c2cc(S(=O)(=O)N(Cc3ccccc3)C(=O)C3CCCCC3)ccc21,i
CC(C(=O)NCc1cccs1)n1ccc2cc(S(=O)(=O)N3CCCC3)ccc21 (centres undefined),i
CCc1ccc(NC(=O)Cn2nc3n(CCC(C)C)c(=O)c4ccccc4n3c2=O)cc1,i
COc1ccccc1N1CCN(CCCCNC(=O)c2ccc(-c3cscn3)cc2)CC1,i
CCN1CCC(N2CC(Oc3cccc(C(=O)NCC4CC4)c3)C2)CC1,i
COc1ccc(-c2onc(C)c2C(=O)NCCCCc2ccccc2)cc1,i
CN1CC(=O)N(c2cccnc2)Cc2c1ncnc2N1CCN(c2ncccn2)CC1,i

Some of these compounds in order of molecular weight, high to low:
SMILES,Methyltransferases
COc1ccccc1CNC(=O)Cn1ccc2cc(S(=O)(=O)N3CCC(C)CC3)ccc21,i
CN1CC(=O)N(c2cccnc2)Cc2c1ncnc2N1CCN(c2ncccn2)CC1,i
COc1ccccc1C(C(=O)O)N1CCC(OCc2cccnc2)CC1 (centres undefined),i
CN1CCNC(=O)C1CC(=O)O (centres undefined),i

The listing continues:
SMILES,Methyltransferases
COCc1ccc2c(c1)c(OC(C)(C)C(=O)N1CCN(C)CC1)nn2CCC(C)C,i
COc1ccc(CN2CCN(C3CCN(c4ccccc4)CC3)CC2CCO)cc1C (centres undefined),i
C=CC1(C)CC(OC(=O)C(=C)C(O)COC(C)=O)C(C(=C)C(=O)OC)C(O)C1C(=C)CO (centres undefined),i
CCOC(=O)c1cc2n(n1)CC(C)(C(=O)NC1CCC(C)CC1)N(c1ccc(C)c(F)c1)C2=O (centres undefined),i
O=C1NCCOCCCN(S(=O)(=O)c2cccs2)[C@H]2CCCC[C@@H]12,i
COc1ccccc1CNC(=O)C1(C)Cn2c(cc3ccccc32)C(=O)N1CCc1ccc(C)cc1 (centres undefined),i
Cc1ccc(C)c(N2C(=O)c3cc4occc4n3CC2(C)C(=O)NC2CCCCCC2)c1 (centres undefined),i
N#CCNC(=O)c1ccc(-c2ccnc(Nc3ccc(N4CCOCC4)cc3)n2)cc1,?
CCN1C(=O)c2cc(C(=O)NCc3ccc(Cl)cc3)nn2CC1(C)C(=O)NC1CCCC1 (centres undefined),i
O=C(O)CP(=O)(O)O,i
CCCn1cc(-c2ccnc(NCc3c(F)ccc(C)c3F)n2)c(C)n1,i
COC(=O)c1ccc([C@@H]2Nc3c(OC)cccc3[C@@H]3C=CC[C@@H]32)cc1,i
Cc1cc2nc3n(c(=O)c2n1CC(=O)NC1CCCCC1)CCCCC3,i
Cn1c(=O)n(C)c2cc(S(=O)(=O)N(Cc3ccco3)C(=O)c3ccco3)ccc21,i
O=C(CCn1ccc2cc(S(=O)(=O)N3CCCC3)ccc21)NCc1ccco1,i
CC1C2=CC(=O)OC2(O)CC2C1C(O)CC1C(C)(CO)CCCC21C (centres undefined),i
CCC(C)NC(=O)c1ccc2c(=O)n(Cc3ccccc3)c3nn(Cc4ccc(Cl)cc4)c(=O)n3c2c1 (centres undefined),i
CNc1nccnc1-c1cccc(CN2CCOCC2)c1,i
O=C1Nc2ccccc2CC12CCCN2Cc1ccccc1 (centres undefined),i
Cn1c2c(c3ccccc31)C(C(=O)NCc1ccc(F)cc1)N(CCC1=CCCCC1)C(=O)CS2 (centres undefined),i
CCC1(O)CCC12CCN(C(=O)C1CC1)CC2 (centres undefined),i
CC1=C(C(=O)Nc2cc3cn[nH]c3cc2F)C(c2ccc(C(F)(F)F)cc2)CC(=O)N1 (centres undefined),i
CN1C[C@@H]2CC[C@H](CC1=O)N2C(=O)c1cnn2cc(CCO)cnc12,i
CN(C)Cc1nnc(C2CC(NC(=O)Cc3noc4ccccc34)C2)n1C (centres undefined),i
C=C1CC[C@H]2[C@@](C)(CCC(OC3OC(CO)C(O)C(O)C3O)[C@@]2(C)CO)C1C(=O)CC1=CCOC1=O (some centres undefined),i
CN1CCN(C(=O)N2CCC3(CCCN(C4CCOCC4)C3=O)C2)CC1 (centres undefined),i
CCN(Cc1ccccc1)C(=O)Cn1c(=O)n(C)c2cnc(-c3ccccc3)nc21,i
Cc1cc(C)n(CC(=O)N2CCCCCCNC(=O)[C@@H]3CCCC[C@@H]32)n1,i
Cc1cc(Nc2nc(N[C@@H](C)c3ccc(F)cc3)c(C#N)cc2F)n[nH]1,+!
COC(=O)C(CC1(OC(=O)C(C)C)c2ccccc2N2C(=O)C(C)(C)N(O)C21)n1cnc2ccccc2c1=O (centres undefined),i
C#CCN(C)C(=O)C[C@@H]1c2nc(NC(=O)CCCCC)sc2C[C@@H]2[C@](C)(CO)[C@H](O)CC[C@]21C,i
O=C(Nc1ccccc1)N1CCC(Cc2cnc3ccccc3c2)CC1,i
COc1ccccc1CNC(=O)C1c2c(n(C)c3ccccc23)SCC(=O)N1c1cc(F)ccc1F (centres undefined),i
CC1(C(=O)NC2CCCCC2)Cn2nc(-c3cccs3)cc2C(=O)N1c1cccc(Cl)c1 (centres undefined),i
CCCn1c(=O)c2ccc(C(=O)NC(C)CC)cc2n2c(=O)n(CC(=O)Nc3ccc(C)c(F)c3)nc12 (centres undefined),i
CC(C)(C)c1cc2n(n1)CC(C)(C(=O)NCc1ccccc1)N(c1ccc(F)cc1)C2=O (centres undefined),i
Cc1cccc(-c2noc(CCC(=O)N[C@H]3CC[C@H]3NC3CCCC3)n2)c1,i
COc1nccnc1NC1CCN(C(=O)NC2CCCC2)CC1,i
O=C(OC1C=C(CO)C2C(OC3OC(CO)C(O)C(O)C3O)OC=CC12O)c1ccc(O)cc1 (centres undefined),i
CC(C)CCn1c(=O)c2ccccc2n2c(CCC(=O)NC(C)c3ccccc3)nnc12 (centres undefined),i
CCOc1ccccc1CNC(=O)c1cc2n(n1)CC(C)(C(=O)NCc1ccc(F)cc1)N(C)C2=O (centres undefined),i
Fc1ccccc1-c1noc(NCCc2ccc(Cl)cc2)n1,i
CC#C[C@]1(O)CC[C@H]2[C@@H]3CCC4=CC(=O)CCC4=C3[C@@H](c3ccc(N(C)C)cc3)C[C@@]21C,i
Cc1c(-c2ccc3c(c2)OCO3)oc2ccc(C(O)C(C)O)cc12 (centres undefined),i
Cc1ccc(Cn2nc3n(CCC(C)C)c(=O)c4ccc(C(=O)NC5CCCC5)cc4n3c2=O)cc1,i
O=C(O)C1=CCCN(CCON=C(c2ccccc2)c2ccccc2)C1,i
C[C@@H]1CCC/C=C/[C@H]2CC(=O)C[C@@H]2[C@@H](O)/C=C/C(=O)O1,?
CC1(C)C(O)CCC2(C)C1C(O)C=C1COC(=O)C12O (centres undefined),i
O=C(NC[C@H]1O[C@@H](CO)[C@@H](O)[C@H]1N1CCOCC1)c1cccc(F)c1,i
Cc1ccccc1CCNC(=O)Cn1ccc2cc(S(=O)(=O)N3CCCC3)ccc21,i

Additional records.
SMILES,Methyltransferases
CCOc1ccc(-c2cc3n(n2)CC(C)(C(=O)NC2CCCCC2)N(CCCOC(C)C)C3=O)cc1 (centres undefined),i
CCC1c2ccc(C)n2CCN1C(=O)Nc1ccc(F)c(Cl)c1 (centres undefined),i
COc1ccc(CNC(=O)C2(C)Cn3cnc(C(=O)Nc4cccc5c4CCCC5)c3C(=O)N2C2CC2)cc1 (centres undefined),i
CCCn1c(=O)c2ccc(C(=O)NC(C)C)cc2n2c(=O)n(Cc3cccc(Cl)c3)nc12,i

Rewritten field by field: four of the compounds above
CC(C(=O)NCc1cccc(Cl)c1)n1ccc2cc(S(=O)(=O)N3CCCC3)ccc21 (centres undefined)
  Methyltransferases = i
C[C@@H]1O[C@@H](O[C@@H]2\C=C/C=C\C=C/C=C\C[C@H](C)OC(=O)/C=C\[C@H]3O[C@@H]3C[C@H](O)C[C@]3(O)C[C@@H](O)[C@@H](C(=O)O)[C@H](C2)O3)[C@H](O)[C@H](N)[C@@H]1O
  Methyltransferases = i
COc1ccccc1CNC(=O)Cn1ccc2cc(S(=O)(=O)N3CCC(C)CC3)ccc21
  Methyltransferases = i
O=C(Nc1ccccc1)N1CCC(Oc2ccccc2-c2nc(-c3ccccc3)no2)C1 (centres undefined)
  Methyltransferases = i
